Screening results deposited in PubChem BioAssay by National Center for Advancing Translational Sciences (NCATS).
TRPML1 inh = human mucolipin-1 channel inhibition; Q9GZU1; TRPML1-inducible cells, Ca2+ dye fluorescence, FDSS; active compounds read low; inhibition of EC80 agonist-evoked calcium signal; actives 0.02% (n = 390,000); activity change, negative = inhibition, % (test concentration not listed); in the data active means activity change below about -50%; inconclusive means about -30% to -50%; inactive means above about -30%;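 also: stimulus is agonist 54-4 at its EC80 concentration; % is scaled to controls: 0 for no effect and ±100 for the full control effect; compound concentration not given in the record; the text of the record puts the active cut at -80%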
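Calcium fluorescence in TRPML1-DL cells induced overnight with Tet: a 110 s read after compound pin addition, then a 110 s antagonist read after challenge with 54-4 at 4 uM final (EC80).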
TRPML1 agonist = activates the human TRPML1 channel; Q9GZU1; TRPML1-expressing cells, Ca2+ dye fluorescence, FDSS; host cell line not named in the record; reference of the full effect not given here; activation, % (concentration not given with the values); actives 0.12% (n = 410,000); AID 624414; in the data active = activation above about 50%; inconclusive = about 30% to 50%; inactive = below about 30%; also: 0% is about no effect; the text of the record puts the active cut at 80%
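In this qHTS format, compounds were pin-transferred onto Ca8-dye-loaded TRPML1-DL cells induced with Tet overnight, and intracellular Ca2+ fluorescence was recorded kinetically for 110 s after a 10 s baseline. A subsequent 4uM final 54-4 (EC80) addition followed by a second 110 s read served as the antagonist phase.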
D2 ag = activates the human D2 dopamine receptor; P14416; DiscoveRx PathHunter D2 beta-arrestin, luminescence, 90 min; 100% = 57 uM dopamine signal; activation, % (concentration not given with the values); actives 0.084% (n = 360,000); in the data active = activation above about 40%; inconclusive = about 15% to 40%; inactive = below about 15%; also: compound concentration not given in the record; the text of the record calls up to 30% inactive
Target sequence (P14416 whole entry, looked up): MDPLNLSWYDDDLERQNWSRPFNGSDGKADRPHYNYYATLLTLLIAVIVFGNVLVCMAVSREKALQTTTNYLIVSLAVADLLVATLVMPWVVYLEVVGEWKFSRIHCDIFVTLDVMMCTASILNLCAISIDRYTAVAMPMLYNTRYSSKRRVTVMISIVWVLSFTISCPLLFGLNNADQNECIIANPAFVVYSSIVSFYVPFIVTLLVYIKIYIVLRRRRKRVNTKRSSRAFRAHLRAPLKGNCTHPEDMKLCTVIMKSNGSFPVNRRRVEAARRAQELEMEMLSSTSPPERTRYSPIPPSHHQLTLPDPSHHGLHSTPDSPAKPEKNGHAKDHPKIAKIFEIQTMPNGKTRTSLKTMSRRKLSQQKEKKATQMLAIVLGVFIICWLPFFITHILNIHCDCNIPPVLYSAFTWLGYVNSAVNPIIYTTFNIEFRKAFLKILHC
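DiscoveRx PathHunter D2 beta-arrestin cells (2,100/well) attached overnight, then compound-stimulated 90 min at 37 C in HBSS/10 mM HEPES/0.1% Tween-20 buffer; beta-galactosidase complementation read by luminescence after 1 h at ambient temperature. Dopamine 57 uM final (EC100) as control.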
CtBP-E1A blk = blocks the CtBP interaction with E1A | AlphaScreen GST-E1A/His-CtBP binding, 1536-well; active compounds read low; control for the full effect not named in the record | activity change, % (concentration not given with the values) | actives 0.49% (n = 340,000) | AID 651724; in the data active means activity change below about -65%; inconclusive means about -30% to -65%; inactive means above about -30%; also: % is scaled to controls: 0 for no effect and ±100 for the full control effect
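GST-E1A and His-tagged CtBP (125 nM each as 5X stock) were preincubated with pin-transferred compound for 2 h at 37 °C in the dark, then glutathione donor and nickel acceptor beads were added for 1 h before AlphaScreen reading.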
Six1-Eya2 inh = Six1/Eya2 interaction inhibition | Q15475+O00167 | AlphaScreen GST-Six1/His-Eya2 binding, biochemical; active compounds read low; control for the full effect not named in the record | activity change, % (test concentration not listed) | actives 0.56% (n = 360,000) | AID 651725; in the data active = activity change below about -65%; inconclusive = about -30% to -65%; inactive = above about -30%; also: % is scaled to controls: 0 for no effect and ±100 for the full control effect
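Homogeneous AlphaScreen proximity assay pairing GST-Six1 with His-tagged Eya2 (added as 5X mix: 250 nM and 500 nM) in 50 mM Tris pH 8.0, 300 mM NaCl, 1 mM TCEP. Glutathione donor and nickel acceptor beads; 1 h, 37 °C, dark.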
PINK1 expr mod = changes PINK1 expression; AID 624263; PINK1 immunofluorescence, high-content cytometry, 24 h; actives 0.2% (n = 410,000); Potency, µM (series often up to 76.6 µM), for inactives: at the top dose activation (PINK1 increase), most hits filed as activators; active = well fitted activation curve with a large enough effect; inconclusive = small, poorly fitted or top-dose-only effect; inactive = flat fitted curve, though single readings scatter; cell line not stated here;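 also: potency is read from the fitted curve at half-maximal effect; % of control where 0% means no effect; nearly all actives have a fitted effect of over 65% in size; a mitochondrial uncoupler was the plate control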
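Fluorescence from anti-PINK1 antibody, together with nuclear and cell stains, was scanned on a laser-scanning cytometer. Before staining, stable-line cells were incubated 24 hours with compounds at 5 concentrations; primary antibody 12 h at 10 degrees C.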
The depositor's hits bear a star; ? = inconclusive; · = no result given; & = joins results of further samples; [ ] = another dose, or the depositor's remark.

#	Structure	PINK1 expr mod	CtBP-E1A blk	Six1-Eya2 inh	D2 ag	TRPML1 inh	TRPML1 agonist
1	C=CCc1c(C)nc(SC)nc1Nc1ccc(C(C)=O)cc1	1.1%	-10	-3	1.3	-6	1.9
2	c1ccc2c(c1)-c1cccc3cncc-2c13	-0.9%	-5	13	-0.6	-4	0.3
3	Cc1nnc(SCC(=O)Nc2ccc3c(c2)OCO3)[nH]c1=O	-0.5%	0	4	-6.7	3	-0.1
4	O=C(CSc1ncn[nH]1)NCc1ccc(Cl)cc1	4.6%	6	3	-3.4	-11	0.1
5	COc1ccc(Br)cc1C(=O)Nc1cccc2ncccc12	-1.0%	·	-2	-1.9	5	1.4
6	CSc1cccc(NC(=O)c2cnn3ccccc23)c1	1.9%	-15	-6	3.1	-11	1.1
7	O=C(Cn1ccc2cc(S(=O)(=O)N3CCCC3)ccc21)NCCc1ccccc1	1.2%	0	16	-1.5	7	0.2
8	CNC(=O)c1c(NC(=O)c2ccc(S(=O)(=O)N3CCCCC3C)cc2)sc2c1CCN(C)C2 (stereo not drawn)	8.7%	-2	-3	-1.0	1	0.6
9	COc1ccccc1CNC(=O)COC(=O)c1ccc(N2CCCC2=O)cc1	2.9%	·	-1	-2.0	7	-0.2
10	Cc1ccc(NC(=O)c2cc(-c3ccco3)on2)cc1	-0.8%[38.3 µM]	7	0	-0.8	18	0.6
11	CCCn1nc(NC(=O)c2cccs2)c2cc3cccc(C)c3nc21	-0.9%	14	23	-3.8	-8	-0.1
12	Cc1cc(NC(=O)Nc2ccc(Cl)cc2)no1	3.3%	2	0	0.9	0	0.6
13	O=C(c1cnn(-c2ccccc2)c1-n1cccc1)N1CCN(C2CCCCC2)CC1	-0.2%	1	-1	-0.5	-3	0.6
14	CCC(C)NC(=O)C1(NC(=O)Nc2ccccc2)CCCCC1 (stereo not drawn)	-1.5%	·	0	-4.7	3	-0.2
15	COc1cccc(CNC(=O)CCc2nnc3ccc(NCCCN4CCCC4=O)nn23)c1	-0.1%	-12	2	0.0	4	-0.5
16	COc1cccc2c1OCC(CN1CCN(Cc3ccccc3)C(CCO)C1)=C2 (stereo not drawn)	-0.3%	·	-1	-8.1	-11	0.3
17	Cc1ccc(NC(=O)Cn2nnc(-c3ccccc3-n3cnnn3)n2)c(C)c1	0.0%	·	9	1.8	8	-0.9
18	CCOc1ccc(NC(=S)NC(=O)Cc2ccccc2)cc1	3.3%	·	2	0.7	-8	0.2
19	CC1(C)C2CCC1(CS(=O)(=O)NCc1ccc(Cl)cc1Cl)C(=O)C2 (stereo not drawn)	0.7%	-3	3	-0.8	-1	-0.9
20	CC(C)CNC(=O)C1(C)CCCCCN1C(=O)c1cccnc1 (stereo not drawn)	2.3%	3	6	-3.1	·	-0.5
21	O=C(COC(=O)c1ccncc1)Nc1cc(S(=O)(=O)N2CCOCC2)ccc1Cl	1.1%	4	-2	0.1	3	-0.4
22	CCOC(=O)CNC(=O)CNC(=O)c1ccc(OCC(C)C)cc1	1.9%	-2	0	-0.2	-4	-0.2
23	CCCCn1c(=O)[nH]c(=O)c2c1nc(-c1ccncc1)n2CCOC	-0.5%	5	-1	-0.7	0	0.9
24	c1ccc(NC2=NCCCCS2)cc1	-3.7%	9	1	-3.5	28	-0.1
25	COCCn1c(-c2ccc(-c3ccccc3Cl)o2)nc2c1c(=O)[nH]c(=O)n2CC(C)C	4.4%	0	1	-1.7	-16	0.3
26	O=C(c1ccccc1-c1ccccc1)N1CCCCC1	1.7%	-1	7	0.2	-13	-0.3
27	O=C(O)C1CCC(N2C(=O)C3CCCCC3C2=O)CC1 (stereo not drawn)	·	-1	-1	0.3	1	0.7
28	O=C(NCCN1CCCC1)c1ccccc1Cl	-0.7%	4	4	-1.7	27	-0.4
29	O=C(c1ccccc1)N1CCN(CCc2ccccn2)CC1	1.4%&2.6%	8	-2	-0.2	-6&1	-0.1&-0.2
30	Cc1cccc(C)c1OCCn1nc(C(=O)O)c2ccccc2c1=O	-0.7%	-1	6	2.6	-8	3.0
31	COc1cc(-c2nnc(SCCOc3ccc(Cl)cc3)o2)cc(OC)c1OC	2.7%	·	·	·	-13	3.4
32	COc1ccc2oc(=O)c(C(=O)NCCc3c(C)[nH]c4ccc(F)cc34)cc2c1	1.4%	·	·	·	22	5.4
33	O=C(c1cc(S(=O)(=O)N2CCOCC2)ccc1Cl)N1CCOCC1	-2.4%	8	3	-3.4	5	0.1
34	COc1ccc2oc(C(=O)OCC(=O)N(C)C3CCS(=O)(=O)C3)c(C)c2c1 (stereo not drawn)	1.5%	-8	4	2.0	4	0.2
35	CCOCCCNC(=O)CN1C(=O)CSc2ccc(S(=O)(=O)N3CCOCC3)cc21	0.1%	7	6	-0.8	?	-0.1
36	Nc1nc(SCC(=O)c2ccc([N+](=O)[O-])cc2)n[nH]1	-0.7%	-15	-5	0.7	9	-0.1
37	CN(C)c1ccc(C(=O)Nc2ccc(CN3CCS(=O)(=O)CC3)cc2)cc1	-1.4%	·	-10	2.4	0	0.2
38	CCn1c(CCCNC(=O)c2ccco2)nc2ccccc21	1.2%	5	0	-3.0	28	0.7
39	O=C(CS(=O)c1cccc(Cl)c1)Nc1ccccc1Cl (stereo not drawn)	0.8%	3	0	-4.2	-14	-0.5
40	Cc1ccc(-n2nnnc2SCC#N)cc1	-0.2%	0	-1	-3.2	13	-0.2
41	O=C(Nc1cc2ccc(O)cc2oc1=O)c1ccc(F)cc1	2.0%	·	·	·	28	0.8
42	Cc1ccc(CNC(=O)c2ccc3c(c2)NC(=O)C(N2CCOCC2)S3)cc1 (stereo not drawn)	-2.7%	0	5	-1.8	-16	0.5
43	CCn1nnnc1SCC(=O)N1c2ccccc2Sc2ccccc21	-3.3%	3	2	-2.0	39	0.6
44	Cc1ccccc1Nc1nc(-c2sc(NC(=O)c3ccco3)nc2C)cs1	2.8%	0	-5	-3.3	-8	-1.2
45	O=C(N/N=C/c1ccccn1)c1cc([N+](=O)[O-])cc([N+](=O)[O-])c1	-0.2%	·	?	11	27	0.4
46	CCCCCCN1C(=O)C(O)=C(C(C)=O)C1c1ccccc1[N+](=O)[O-] (stereo not drawn)	3.2%	·	16	0.6	-6	-0.5
47	Cc1ccc(N2CC(C(=O)Nc3ccc(S(=O)(=O)Nc4ncccn4)cc3)CC2=O)cc1C (stereo not drawn)	0.8%	0	-9	-1.2	14	0.0
48	NC(=O)C1CCN(c2ccc(S(=O)(=O)N3CCC(Cc4ccccc4)CC3)cn2)CC1	9.0%	5	0	2.5	10	-0.2
49	CCOc1ccc(C2CC(=O)NC3=C2C(=O)CCC3)cc1Cl (stereo not drawn)	-2.0%	11	1	-0.8	5	0.3
50	CC1(C)Cc2c(sc(NC(=O)/C=C/C(=O)O)c2C#N)CO1	-0.5%	4	6	-3.1	-17	-0.6
51	O=C(NCc1ccccn1)c1ccccc1OCc1ccc(Cl)cc1Cl	-1.3%	1	6	-7.2	9	1.5
52	CCOC(=O)CN(C(=O)CCC(=O)Nc1cc(C)on1)C(C(=O)NC1CCCC1)c1cccnc1 (stereo not drawn)	2.4%	1	4	-0.9	5	-0.6
53	CC(=O)c1ccc(-c2nnc(CCC(=O)N(C)Cc3cccc4cnccc34)o2)s1	2.6%	1	0	-9.8	-9	-0.8
54	O=C(COC(=O)c1ccc(F)c(S(=O)(=O)N2CCOCC2)c1)NCc1ccc(F)cc1	1.0%	-1	-6	-1.3	-5	0.6
55	CC(=O)N1CCN(C(=O)c2ccc(C(=O)c3ccccc3)cc2)CC1	1.2%	·	-6	-2.5	-5	0.5
56	Cc1ccc(CC(=O)N/N=C/c2ccc(OC(=O)c3ccc([N+](=O)[O-])cc3)cc2)cc1	-1.9%	0	-10	3.3	7	-0.3
57	COCCCN(Cc1cccs1)S(=O)(=O)c1csc(C(N)=O)c1	0.8%	·	5	1.8	-5	0.4
58	COc1ccccc1Oc1nc2c(c(=O)n(Cc3ccccc3F)c(=O)n2C)n1C	0.8%	-4	-3	-3.6	7	0.6
59	Cc1ccccc1-c1cnc(C(O)c2ccc(Cl)cc2C)[nH]1 (stereo not drawn)	3.7%	-6	-13	-3.2	·	-1.0
60	O=C(NCCOc1ccc(Cl)cc1)C1CC(=O)N(c2ccc3c(c2)OCCO3)C1 (stereo not drawn)	-2.4%	-6	-3	-0.5	-10	0.4
61	COc1ccc(C(=O)NCCNc2ncc(C(F)(F)F)cc2Cl)cc1[N+](=O)[O-]	5.2%	-2	-5	5.7	1	2.1
62	COC(=O)C(C)NC(=O)c1ccc(C(C)(C)C)cc1 (stereo not drawn)	-0.8%	4	1	-0.1	5	0.2

One compound at a time (already shown). Order of values: PINK1 expr mod | CtBP-E1A blk | Six1-Eya2 inh | D2 ag | TRPML1 inh | TRPML1 agonist
`CCOc1ccc(NC(=S)NC(=O)Cc2ccccc2)cc1` across the screens: 3.3% | · | 2 | 0.7 | -8 | 0.2
`CCCn1nc(NC(=O)c2cccs2)c2cc3cccc(C)c3nc21` across the screens: -0.9% | 14 | 23 | -3.8 | -8 | -0.1
`COc1ccc2oc(C(=O)OCC(=O)N(C)C3CCS(=O)(=O)C3)c(C)c2c1` (stereo not drawn) across the screens: 1.5% | -8 | 4 | 2.0 | 4 | 0.2
`CN(C)c1ccc(C(=O)Nc2ccc(CN3CCS(=O)(=O)CC3)cc2)cc1` across the screens: -1.4% | · | -10 | 2.4 | 0 | 0.2
`COc1ccccc1Oc1nc2c(c(=O)n(Cc3ccccc3F)c(=O)n2C)n1C` across the screens: 0.8% | -4 | -3 | -3.6 | 7 | 0.6
